Vaccinia Venus: inhibitors of vaccinia virus (Venus reporter) | Vaccinia virus Venus reporter expression, fluorescence | Potency, µM (series often up to 36.5 µM), without a hit: top-dose activity change, negative = inhibition, actives largely listed as inhibitors | 330,000 tested, 0.46% active; active means well fitted inhibition curve with a large enough effect; inconclusive means small, poorly fitted or top-dose-only effect; inactive means no such curve, though single readings can be large or run the other way; tested in A549 cells; note: nearly all actives have a fitted effect of over 30% in size; inactives centre near -10
Vaccinia mCherry: inhibitors of vaccinia virus infection (mCherry reporter signal). Vaccinia virus mCherry reporter infection, fluorescence; about a quarter of the inactives have no number. Potency, µM (titrated, usually from 36.5 µM), for inactives: top-dose activity change, negative = inhibition, usual class: inhibitors. 310,000 tested, 0.63% active. AID 720579; active = well fitted inhibition curve with a large enough effect; inconclusive = small, poorly fitted or top-dose-only effect; inactive = no such curve, though single readings can be large or run the other way; tested in A549 cells; note: nearly all actives have a fitted effect of over 35% in size; inactives centre near -10
* marks the source's active call; other numbers are inactive results; i = inactive; ? = inconclusive; / = no result given; & = joins results of further samples; [ ] = remark or other dose. % is set by controls: 0 for no effect and ±100 for the full control effect; potency is the fitted concentration of half-maximal effect.

SMILES | Vaccinia Venus | Vaccinia mCherry
Cc1nc(-c2nnc(-c3ccccc3)o2)c(C(F)(F)F)o1 | -2.1% | -10.0%
CCCN(CC(=O)Nc1ccc(C(N)=O)cc1)CC(=O)Nc1ccc(Cl)cc1Cl | -2.1% | -6.5%
COc1cc(/C=C2/SC(=S)N(CCC(=O)N3CCN(C)CC3)C2=O)cc(OC)c1OC | ? | 10µM*
C=CCC(CC=C)(CNC(=O)C(=O)Nc1ccc(Br)cc1)c1ccc(OC)c(OC)c1 | -18.2% | i
O=C(O)C12CC3CC(C1)CC(n1ncc(NCc4ccco4)c(Cl)c1=O)(C3)C2 | -0.5% | -13.2%
Cc1c(CN(C)C(=O)c2sc3cc(Cl)ccc3c2Cl)cnn1C | ? | ?
CNC(=S)N(CCc1c(C)[nH]c2ccc(C)cc12)Cc1cc(OC)c(OC)c(OC)c1 | -16.9% | ?
COc1ccc(N2CCN(CCC3Oc4cc([N+](=O)[O-])ccc4NC3=O)CC2)cc1 (stereo not drawn) | -15.2% | -13.9%
O=C(COC(=O)c1ccccc1NS(=O)(=O)c1cccs1)NCC12CC3CC(CC(C3)C1)C2 | -7.3% | -10.2%
Cc1nc2ccc(S(=O)(=O)NCC(=O)Nc3cccc(F)c3)cc2s1 | -10.9% | i
Cc1ccc(N2CC(C(=O)NCc3ccc(C)n3C)CC2=O)cc1 (stereo not drawn) | -4.0% | -2.7%
Cc1nc2ncnn2c(C)c1Cc1c(Cl)cccc1Cl | -10.6% | i
CCOC(=O)c1[nH]c(=O)[nH]c1CSCCO | -2.5% | /
Cn1c(SCc2ccc([N+](=O)[O-])cc2)nc2c(c1=O)SCC2 | -3.8% | -6.7%
COc1ccc(CN2C(=O)c3ccccc3C2C(=O)NC2CCCCCC2)c(OC)c1 (stereo not drawn) | 2.5% | -6.9%
CCc1nnc(NC(=O)CSc2nccn2-c2ccccc2)s1 | -5.6% | -13.0%
CC(=O)Oc1ccc(/C(C)=N/N2CCN(Cc3ccc(C)cc3)CC2)cc1 | -6.2% | i
O=C(Nc1c(C(=O)N2CCN(c3ccccc3F)CC2)oc2ccccc12)c1ccco1 | -6.6% | -23.2%
COC(=O)c1sc(S(=O)(=O)NCc2cccs2)c(C(=O)OC)c1C | -10.6% | -21.6%
Cc1sc2ncn(CC(=O)NCCc3ccccc3)c(=O)c2c1C | 4.6% | -2.1%

Taken from above.
Entry for O=C(COC(=O)c1ccccc1NS(=O)(=O)c1cccs1)NCC12CC3CC(CC(C3)C1)C2 under Vaccinia Venus: -7.3%
Entry for Cc1sc2ncn(CC(=O)NCCc3ccccc3)c(=O)c2c1C under Vaccinia Venus: 4.6%

Next section:
SMILES | Vaccinia Venus | Vaccinia mCherry
CCCN(CCC)CCCNC(=O)C1CCCN(S(=O)(=O)c2cccc3nsnc23)C1 (stereo not drawn) | -9.8% | -5.4%
Cc1ccc(SCCC(=O)NCCSCc2ccco2)cc1 | -15.9% | -11.2%
CC(=O)c1cn(Cc2ccccc2)c(=O)[nH]c1=O | -2.4% | -3.5%
Cc1cc(C)nc(SCc2n[nH]c(=S)n2C)n1 | ? | /
O=C1c2ccccc2NC(c2ccc(OCc3ccccc3)c(OCc3ccccc3)c2)N1Cc1ccco1 (stereo not drawn) | -10.8% | 6.6%
COc1ccc(NC(=O)C2CCCN(S(=O)(=O)c3ccc(-n4cnnn4)cc3)C2)cc1 (stereo not drawn) | -12.2% | -16.2%
CCSc1nnc(NC(=O)[C@@H](NC(=O)c2cc(OC)cc(OC)c2)C(C)C)s1 | 2.2% | -2.9%
COc1ccc(S(=O)(=O)N2CCCC(C(=O)NCCN3CCOCC3)C2)cc1C (stereo not drawn) | -16.9% | -28.3%
C#CCOCCOCCOCCNc1nc(N2CCN(C(=O)C([C@@H](C)O)n3cc([C@@H](N)CCCCN)nn3)CC2)nc(N2CCN(C(=O)[C@H](CCCCN)n3cc(CN)nn3)CC2)n1 (stereo partly drawn) | -4.9% | -11.0%
Cc1cccc(-c2noc(CN(C(=O)C34CC5CC(CC(C5)C3)C4)C(C)C)n2)c1 | -7.7% | -1.3%
C#CCOc1ccc(/C=C2/C(=O)NN(c3ccc(F)cc3)C2=O)cc1OC | -12.8% | ?
COc1ccc(S(=O)(=O)N2CCC(C(=O)O)(c3ccccc3)CC2)cc1 | -6.2% | i
COCCCNC(=O)c1ccc(CS(=O)(=O)c2ccccc2OC)o1 | -10.1% | -3.5%
CC1(OC(=O)C2CCCC2)C(=O)C=C2C=C(c3ccsc3)N(C3CCCC3)C=C2C1=O (stereo not drawn) | -13.0% | -4.6%
CC1(C(=O)NCc2ccccc2)CN(S(C)(=O)=O)CC(=O)N1CCc1ccccc1 (stereo not drawn) | -2.8% | -9.8%
CCC(C(=O)Nc1nnc(-c2ccco2)s1)c1ccccc1 (stereo not drawn) | -10.6% | /
COc1ccc(NC(=O)CSc2nnc(CNC(=O)COc3ccc(Cl)cc3)o2)cc1 | -8.4% | i
CCOc1ccc(C(=O)Nc2ccc(C(=O)OCc3cc(=O)n4nc(CC)sc4n3)cc2)cc1 | -18.7% | i
COC(=O)c1ccc(CN(c2ccc(C)cc2)S(=O)(=O)c2ccc3c(c2)OCCO3)o1 | -2.6% | -14.2%
O=C(NCCNS(=O)(=O)c1ccccc1)N1CCOCC1 | -11.4% | -13.4%
CCc1noc(C)c1C(=O)N1CCCSC1=Nc1ccccc1Cl | -14.1% | -28.2%
Cc1ccc(OCC(=O)O/N=C(\N)c2cccnc2)cc1 | -4.1% | 8.4%
O=C(CSc1nc2ccccc2o1)N1CCN(c2ccc(Cl)cc2)CC1 | -7.9% | -6.5%
O=C(Cc1ccccc1)N(Cc1cccnc1)c1nc2c(F)cc(F)cc2s1 | -8.0% | -15.6%
CN(O)/C=c1/ccc2c(n1)C(=O)C=CC=2 | 1.3% | /
COc1cc(/C=N/NC(=O)Cc2nnc(NC(=O)c3ccccc3)s2)ccc1O | -5.9% | -9.0%
Cc1cccc(-n2ncc3c(NCCN4CCOCC4)ncnc32)c1 | -11.7% | i
C/C(=N/NS(=O)(=O)c1ccc(Br)cc1)c1ccc(C)o1 | -17.3% | -14.6%
O=C(CSc1cc([N+](=O)[O-])cc(S(=O)(=O)Cc2ccccc2)c1)NC1CC1 | -12.8% | i
O=C(CSc1nnc(NC(=O)c2c(F)cccc2F)s1)NC1CCCC1 | -0.4% | -9.4%
S=C(Nc1ccccc1Cl)N(Cc1ccccc1)Cc1cccnc1 | -21.0% | -12.5%
CCCCn1c(=NC(=O)c2ccco2)c(C(=O)OCC)cc2c(=O)n3ccccc3nc21 | -11.1% | -10.5%
Cc1ccc(Cl)cc1N1CCN(C(=O)c2cc3c(=O)n(C)c4ccccc4c3s2)CC1 | -17.4% | -3.9%
COC(=O)c1sccc1NC(=S)N1CCN(c2ccccc2)CC1 | -5.4% | -14.2%
COc1ccc(OCC(=O)N2N=C(C)CC2(O)C(F)(F)F)cc1 (stereo not drawn) | -9.0% | i
Cc1nn(-c2ccccc2)c2sc(C(=O)Nc3ccc(Br)cc3)cc12 | -11.4% | -12.6%
C=CC(=O)Nc1ccc(Nc2nc(NC3CCC(N(C)C)CC3)nc3c2ncn3C(C)C)cc1 (stereo not drawn) | 1.12µM* | ?
N=c1c2ccccc2nc2n1CCCCC2 | -15.0% | 2.0%
CC(=O)c1ccc(S(=O)(=O)N(C)CCCC(=O)N(C)Cc2ccccc2F)cc1 | -8.8% | i
O=C(NCCc1ccccc1)c1ccc(CS(=O)Cc2ccc(Cl)cc2)o1 (stereo not drawn) | -21.3%&-8.6% | -16.0%&-13.6%
FC(F)Sc1ccc(NC(=S)NC2CCC(NC(=S)Nc3ccc(SC(F)F)cc3)CC2)cc1 (stereo not drawn) | -6.6% | -8.2%
CCc1ccc(OCC(=O)Nc2ccc(Cl)c(-c3nc4ncccc4o3)c2)cc1 | -1.5% | -1.5%
CCN1CCN(C(c2ccc(F)cc2)c2sc3nc(-c4ccco4)nn3c2O)CC1 (stereo not drawn) | -5.6% | -9.5%
CCCC(=O)Nc1ccc2nc(SCC(=O)N3CCOCC3)sc2c1 | -3.3% | 1.4%
O=C(O)CSC1=NC(=Nc2cccc(Cl)c2)C2(CCCCC2)N1c1ccccc1 | -2.5% | -7.2%
CCc1ccc(-c2cc(C)no2)cc1S(=O)(=O)NCCCN1CCN(c2ccccc2)CC1 | 10.4%[7.34 µM] | -7.1%[7.34 µM]
COc1ccc(NC(=O)c2cc(S(=O)(=O)N3CCOCC3)cn2C)c(OC)c1 | -0.8% | 43.5%[activator]
Cc1ccc(CNc2nc3ccccc3s2)s1 | ? | /
CCOC(=O)c1c(S(=O)(=O)N(C)Cc2ccco2)c(C)n(C)c1C | -10.9% | -20.6%
Cc1ccc(O)c(N/C=C/C(=O)c2ccc(F)cc2)c1 | ? | ?
CCN(CC)C(=O)Cn1cc(SCC(=O)Nc2cc(OC)ccc2OC)c2ccccc21 | -14.7% | -20.6%
CC(O)(c1ccccc1)c1nc(/C=C/c2ccccc2)cs1 (stereo not drawn) | 0.9% | i
CCOC(=O)[C@]12CCC=C1N(Cc1ccco1)C(=O)[C@H](CC(=O)NCCc1ccccc1OC)C2 | 5.9% | 6.6%
Cn1cc(S(=O)(=O)CC(=O)Nc2ccc3c(c2)OCO3)c2ccccc21 | 1.3% | -8.8%
Cc1cc(C(=O)NC2CC(C)(C)Cc3c2cnn3-c2ccc(F)cc2)no1 (stereo not drawn) | -15.0% | -6.6%
CN(C)c1ccnc(Oc2ccccc2)c1C#N | -1.9% | -10.7%
COC(=O)Cc1c(C)c2ccc3c(c2oc1=O)CN(Cc1ccc(Cl)cc1)CO3 | -20.2% | i
Cc1ccc(S(=O)(=O)N2CCN(C(=O)COC(=O)COc3cccc4c3OC(C)(C)C4)CC2)cc1 | -7.5% | -8.7%
COc1ccccc1/C=N/NC(=O)c1cccc(NC(=O)c2ccccc2Cl)c1 | -12.8% | -7.7%
Cc1ccc(Cn2c(C(C)Nc3nc(-c4ccc(Cl)cc4)cs3)nc3cc(C(=O)NCCCO)ccc32)cc1 (stereo not drawn) | -18.6% | ?

For convenience, part of the list above.
SMILES | Vaccinia Venus | Vaccinia mCherry
Cc1cc(C(=O)NC2CC(C)(C)Cc3c2cnn3-c2ccc(F)cc2)no1 (stereo not drawn) | -15.0% | -6.6%
CN(C)c1ccnc(Oc2ccccc2)c1C#N | -1.9% | -10.7%
COC(=O)Cc1c(C)c2ccc3c(c2oc1=O)CN(Cc1ccc(Cl)cc1)CO3 | -20.2% | i
Cc1ccc(S(=O)(=O)N2CCN(C(=O)COC(=O)COc3cccc4c3OC(C)(C)C4)CC2)cc1 | -7.5% | -8.7%
COc1ccccc1/C=N/NC(=O)c1cccc(NC(=O)c2ccccc2Cl)c1 | -12.8% | -7.7%
Cc1ccc(Cn2c(C(C)Nc3nc(-c4ccc(Cl)cc4)cs3)nc3cc(C(=O)NCCCO)ccc32)cc1 (stereo not drawn) | -18.6% | ?

2 records drawn at random from those above, as already listed:
SMILES | Vaccinia Venus | Vaccinia mCherry
C=CC(=O)Nc1ccc(Nc2nc(NC3CCC(N(C)C)CC3)nc3c2ncn3C(C)C)cc1 (stereo not drawn) | 1.12µM* | ?
CNC(=S)N(CCc1c(C)[nH]c2ccc(C)cc12)Cc1cc(OC)c(OC)c(OC)c1 | -16.9% | ?

(more compounds)
SMILES | Vaccinia Venus | Vaccinia mCherry
CC1(C)CC2C1CCC1(C)OC1CCC2(C)O (stereo not drawn) | -11.8% | -21.1%
COc1ccc(Br)cc1CN1CCN(C(=O)c2cccc(F)c2)CC1 | -10.3% | i
CC1(c2cccc(Br)c2)NC(=O)N(CC(=O)Nc2ccc(F)cc2)C1=O (stereo not drawn) | -5.6% | -14.0%
O=C(CC1C(=O)NCCN1C(=S)Nc1ccccc1)Nc1ccc(F)cc1 (stereo not drawn) | 0.4% | -21.6%
CC[n+]1c(/C=C/C=C/N(C(C)=O)c2ccccc2)sc2ccccc21 | 190.7%[activator] | /
O=C(COc1ccccc1[N+](=O)[O-])OCC(=O)N1CCC(Cc2ccccc2)CC1 | -7.8% | -17.7%
COc1ccc(CNC(=O)C(=O)NCC(c2cccs2)S(=O)(=O)c2ccc(C)cc2)cc1 (stereo not drawn) | -4.3% | -14.1%
Cc1ccc(NC(=O)CN(C)CC(=O)Nc2ccc(F)c(F)c2F)c(Cl)c1 | -5.4% | i
Cc1ccc(S(=O)(=O)N2CCCCC2)cc1C(=O)Nc1ccc(N2CCOCC2)cc1 | -24.3% | -25.1%
O=C(Cn1c(-c2cccs2)cc2ccccc21)NCCCN1CCN(c2ccccc2F)CC1 | -21.7% | -28.5%
O=C(NCc1ccccc1)C1CCC(CNS(=O)(=O)c2ccc(Br)s2)CC1 (stereo not drawn) | -5.7% | -10.9%
COc1cc(NC(=O)c2ccc(-c3nc(COc4ccccc4)c(C)o3)cc2)cc(OC)c1 | -21.3%[7.34 µM] | -16.1%[7.34 µM]
Cc1ccc(C2C(=O)N(C3CCCC3)CC(=O)N2C2CCCCC2)cc1 (stereo not drawn) | -17.4% | 3.4%
CC(C)C[C@@H]1COc2cccc(N(C)CCO)c2S(=O)(=O)N1 | -4.1% | 6.8%
c1nc2sc3c(c2c2nnnn12)CCCC3 | -14.1% | -12.8%
CC(C)Cc1nnc(NS(=O)(=O)c2ccccc2)s1 | -6.0% | -7.9%
O=S(=O)(c1ccc2nc(NCc3ccccc3Cl)ccc2c1)N1CCCCC1 | -7.0%[7.34 µM] | i[7.34 µM]
O=C(C1CCC(=O)N1C1CCCCC1)N1CCC2(CC1)OCCO2 (stereo not drawn) | 0.0% | -4.2%
O=C1N/C(=C\c2ccccc2)C(O)=C1C=NCc1ccccc1 | -17.2% | -12.8%
COC(=O)Oc1ccc(/C=N/NC(=O)CSCc2ccc(Cl)cc2)cc1OC | -23.4% | -22.3%
O=C(CN1C(=O)C2(SCC(=O)N2c2ccc(Cl)cc2)c2ccccc21)NCCc1ccccc1 (stereo not drawn) | -11.2% | -13.0%
